Autofluor counter: compound fluorescence in toxin protease inhibitor counterscreen. 360,000 tested, 3.1% active. fluorescence intensity (concentration not given with the values). compound autofluorescence counterscreen, microsphere flow cytometry; stronger effect = higher value;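 active means at least 3 SD above the mean of all compounds, about 16000 in these data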;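 further: 100 nL of 1 mM stock went into each well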
* = called active by the depositor.

SMILES	Autofluor counter
CC1=C(C(=O)N2CCCCCC2)CC(CC(=O)NCC2CCCCC2)C(=O)N1Cc1ccc(F)cc1 (stereo unspecified)	5646
CC(=O)Nc1cccc(-c2cc3c(c4c2ccn4C)C2CCC3O2)c1 (stereo unspecified)	5767
O=C(C1CC=CCC1)N1CCCCCC1 (stereo unspecified)	3607
O=C(NCc1ccncc1)C(=O)NCC1OCCN1S(=O)(=O)c1ccccc1 (stereo unspecified)	2961
CNc1cncc(-c2cccc(C(=O)N3CCOCC3)c2)n1	3831
COc1ccccc1CC1(C)C(=O)Nc2c(Cl)cccc21 (stereo unspecified)	3521
Cc1cccc(C)c1NC(=O)c1csc(COCCO)n1	3918
COc1cccc(CNC(=S)Nc2ccc3c(c2)c(=O)n(C)n3Cc2csc(C)n2)c1	3689
O=C(O)Cn1c2ccccc2c2nc3ccccc3nc21	3706
CC(C)(C)NC(=O)C1c2ccccc2OCC(=O)N1Cc1ccccc1 (stereo unspecified)	4220
Cn1ccc2c(-c3ccc(C(C)(C)C)cc3)cc3c(c21)C1CCC3O1 (stereo unspecified)	6243
C[C@@H]1Cn2cnc(C(=O)Nc3cccc(Cl)c3)c2C(=O)N1	3499
COc1ccc(CNC(=O)c2ccc(Cl)c(S(=O)(=O)N3CCCCCC3)c2)cc1	3991
CCCCCCN1CCN(C2CN(Cc3ccc(F)cc3)S(=O)(=O)C2)CC1 (stereo unspecified)	4244
COc1ccc([C@H]2C[C@@H](n3cc(-c4ccc(F)cc4)nn3)[C@H](O)CN2C(=O)c2cccs2)cc1	2873
CC(=O)Nc1cc(-c2ccccc2)cn2c(-c3ccc(F)cc3)cnc12	3794
COc1ccc(-c2c(N)cnc(C(=O)O)c2C)c(OCc2ccccc2)c1OC	3130
COc1ccc(-c2c(C(=O)c3ccccc3)[nH]c(N)c2C(=O)c2ccc(Br)cc2)cc1OC	5734
CC(C)CNc1ncnc2c1ncn2[C@H]1CN(Cc2cccs2)C[C@@H](CO)O1	3565
COC(=O)[C@]12CCCCC=C1N(Cc1ccccc1)C(=O)[C@H](CC(=O)NCc1cccc3ccccc13)C2	4332
Cc1ccc([C@@H]2C[C@H]3[C@@H](CN2S(=O)(=O)c2ccc(C)cc2)C(=O)C[C@@H](c2ccccc2F)N3S(=O)(=O)c2ccc(C)cc2)cc1	4134
CCCS(=O)(=O)NC(=O)C1(C)CCN(C(=O)Cc2cccc(OC)c2)C1 (stereo unspecified)	2776
COc1cc2nnn(-c3ccncc3)c2cc1OC	3662
CCCCN1C(=O)C(CC(=O)NCCCN(C)C)CC(C(=O)N(C)C)=C1C (stereo unspecified)	3695
O=C1NC[C@@H](CCCCN2C[C@H](Cc3ccc(O)cc3)N(CC3CCCCC3)C(=O)C2=O)N(CCC2CCCCC2)C1=O	6275
C[C@H]1O[C@H](C2CCCC2)CC2=C1C(=O)OC(C)(C)O2	5621
Cc1noc(C)c1NC(=O)N(C)C[C@H]1OCCCC[C@@H](C)Oc2ccc(NC(=O)c3ccccc3)cc2C(=O)N([C@H](C)CO)C[C@@H]1C	3644
O=C(NCCc1c[nH]c2ccccc12)OC1CC2CC1[C@H]1CCCCN1C2=O (stereo partly specified)	4218
C[C@H](CO)N1C[C@H](C)[C@H](CN(C)C(=O)c2ccc3ccn(C)c3c2)OCc2cnnn2CCCC1=O	3651
O=C(Nc1c(-c2ccc(Cl)cc2)[nH][nH]c1=O)c1ccccn1	4376
COc1ccc(CN2C[C@@H](CO)O[C@@H](n3cnc4c(NC5CC5)ncnc43)C2)cc1	3744
CC(C)CC(N)c1csc(NC(=O)Nc2ccccc2C(C)C)n1 (stereo unspecified)	3995
CNc1cnc(-c2ccccc2OC)cn1	3772
C[C@H](c1ccccc1)N1C[C@H](COCc2ccccc2)Oc2cc(N3CC[C@@H](N(C)C)C3)ccc2S1(=O)=O	6335
COc1cccc(COC(=O)Nc2ccccc2)c1OC	6039
O=C(NNC(=O)c1csc(-c2cccs2)n1)c1ccc(Cl)cc1	3337
CCNC(=O)C1(C)CCCN1C(=O)c1cc(C)on1 (stereo unspecified)	3697
N#Cc1ccccc1OCC(=O)NC1CCCCCC1	4030
CCN(CC)C(=O)C1=C(C)N(Cc2ccccc2)C(=O)C(CC(=O)NC2CC2)C1 (stereo unspecified)	3693
Cc1cc2nc(C3CCCCC3)c(Cc3ccccc3C(F)(F)F)n2c(C)c1Br	5969

Molecules from the list above that have a halogen (twelve):
SMILES	Autofluor counter
CC1=C(C(=O)N2CCCCCC2)CC(CC(=O)NCC2CCCCC2)C(=O)N1Cc1ccc(F)cc1 (stereo unspecified)	5646
COc1ccccc1CC1(C)C(=O)Nc2c(Cl)cccc21 (stereo unspecified)	3521
C[C@@H]1Cn2cnc(C(=O)Nc3cccc(Cl)c3)c2C(=O)N1	3499
COc1ccc(CNC(=O)c2ccc(Cl)c(S(=O)(=O)N3CCCCCC3)c2)cc1	3991
CCCCCCN1CCN(C2CN(Cc3ccc(F)cc3)S(=O)(=O)C2)CC1 (stereo unspecified)	4244
COc1ccc([C@H]2C[C@@H](n3cc(-c4ccc(F)cc4)nn3)[C@H](O)CN2C(=O)c2cccs2)cc1	2873
CC(=O)Nc1cc(-c2ccccc2)cn2c(-c3ccc(F)cc3)cnc12	3794
COc1ccc(-c2c(C(=O)c3ccccc3)[nH]c(N)c2C(=O)c2ccc(Br)cc2)cc1OC	5734
Cc1ccc([C@@H]2C[C@H]3[C@@H](CN2S(=O)(=O)c2ccc(C)cc2)C(=O)C[C@@H](c2ccccc2F)N3S(=O)(=O)c2ccc(C)cc2)cc1	4134
O=C(Nc1c(-c2ccc(Cl)cc2)[nH][nH]c1=O)c1ccccn1	4376
O=C(NNC(=O)c1csc(-c2cccs2)n1)c1ccc(Cl)cc1	3337
Cc1cc2nc(C3CCCCC3)c(Cc3ccccc3C(F)(F)F)n2c(C)c1Br	5969

New compounds follow
SMILES	Autofluor counter
O=C(Nc1ccc(C(=O)N2CCCC2)cc1)c1cc(F)c(F)cc1Cl	3617
c1ccc(CNc2nc(Oc3ccncc3)c3sccc3n2)cc1	3489
COc1ccc(C(CNC(=O)CSc2ccccc2)N2CCOCC2)cc1 (stereo unspecified)	4105
COc1ccc(CC(N)c2csc(Nc3nccc(C(F)(F)F)n3)n2)cc1 (stereo unspecified)	3761
CCOC1=C2CN(S(=O)(=O)c3ccc(C)cc3)[C@@H](c3cccs3)C[C@H]2[C@H]2C(=O)N(c3ccccc3)C(=O)[C@H]2C1	4281
C[C@H](NC(=O)c1nc[nH]c1C(=O)NC[C@@H](C)O)c1ccccc1	3819
COCCN(C(=O)CSc1nnc(-c2ccc(F)cc2)n1N)c1c(N)n(CC(C)C)c(=O)[nH]c1=O	3553
NC(c1ccccc1)c1csc(Nc2ccccn2)n1 (stereo unspecified)	4012
COc1ccc(C(NC(=O)C2CCN(CCCc3ccccc3)CC2)c2ccccn2)cc1 (stereo unspecified)	4004
CCOC(=O)CCCCCC(=O)Nc1ccc2c(c1)C(=O)N([C@@H](C)CO)C[C@@H](C)[C@H](CN(C)S(=O)(=O)c1cccs1)OCCCC[C@H](C)O2	3089
O=C1[C@H]2[C@@H](c3ccccc3)N[C@]3(CCCN(Cc4ccco4)C3=O)[C@H]2C(=O)N1Cc1ccccc1	3427
CCOC(=O)C1CCCN(C(=O)c2cc(C)n(C(C)(C)C)n2)CC1 (stereo unspecified)	3930
CCN(CC)C(=O)C1=C(C)N(CCC2=CCCCC2)C(=O)C(CC(=O)NCCCCc2ccccc2)C1 (stereo unspecified)	3808
CCN(CC)S(=O)(=O)c1ccc(N2CCCC2)c(NC(=O)CSCc2c(C)noc2C)c1	3822
O=C1NC[C@H](CCCCN2C[C@H](Cc3ccc(O)cc3)N(CC3CCCCC3)C(=O)C2=O)N(CC2CCCCC2)C1=O	5404
CCNC(=O)C1(C)CCCN(C(=O)C2(c3ccc(Cl)cc3)CCCC2)C1 (stereo unspecified)	2957
CCCc1nc2c(C)cc(Br)cn2c1Cc1cccc(F)c1	6643
CN1OC[C@@H]2CN(S(=O)(=O)c3cccc4ccccc34)[C@H](c3ccc(-c4cccnc4)cc3)C[C@@H]21	3867
COc1cccc(Cn2cnc(-c3ccccc3OC)c2-c2ccco2)c1	6016
O=S1(=O)CC(N2CCCCC2)CN1Cc1cn(Cc2ccc(Cl)cc2)nn1 (stereo unspecified)	5615
COc1ccc(C(C)(O)c2nc(-c3cccc(F)c3)cs2)cc1 (stereo unspecified)	3647
Cc1cc(C)n2[nH]c(=O)cc2n1	3555
C[C@H]1CN([C@@H](C)CO)C(=O)c2cc(-c3ccccc3F)cnc2O[C@H]1CN(C)C(=O)C1CCOCC1	2920
C=CCN1c2ccccc2Sc2cnccc21	3928
CSc1ccc(C(O)c2ncc(-c3ccccc3F)[nH]2)cc1 (stereo unspecified)	3445
COC(=O)C1CCN(C2CN(Cc3ccccc3)S(=O)(=O)C2)CC1 (stereo unspecified)	6050
CCOC(=O)C1(C)CCCCN1C(=O)c1ccnc(Cl)c1 (stereo unspecified)	4035
CC1(C(=O)NS(=O)(=O)c2cccc(F)c2)CCN1C(=O)Cc1ccccc1Cl (stereo unspecified)	3526
Cc1ccc(S(=O)(=O)N2C[C@@H](C)[C@]3(C2)[C@H](O)[C@H](OC(=O)Nc2c(C)noc2C)C[C@H]2C(=O)N(c4ccccc4)C(=O)[C@H]23)cc1	3435
CC(=O)C1=CCC(c2ccccc2)N(S(=O)(=O)c2cccc(C)c2)C1 (stereo unspecified)	6527
CC1(C(=O)NS(=O)(=O)c2ccccc2)CCN1C(=O)Cc1ccc(-c2ccccc2)cc1 (stereo unspecified)	3469
O=C1NCCCN1C1OC(CO)C(O)C1O (stereo unspecified)	3997
COC(=O)C1(C)NC(c2cccc(C)c2)C2C(=O)N(c3ccccc3)C(=O)C21 (stereo unspecified)	3420
CC(C)(C)CCN1CCC(CN2CCNC2=S)CC1	2891
O=C(NCc1ccccc1)c1cc(C2COCCN2C(=O)CCc2ccccc2)on1 (stereo unspecified)	3644
COc1ccc(Cl)cc1Cn1c(C)c(C(=O)NCc2ccccc2C(F)(F)F)sc1=O	5090
c1csc(CNc2nc(NCC3CCCCC3)c3sccc3n2)c1	2892
CCCNC(=O)C1(C)CCN(C(=O)c2cc(C(C)(C)C)nn2C)C1 (stereo unspecified)	3632
COCC(=O)N(C)[C@H]1C[C@H]2c3[nH]c4ccccc4c3CCN2C(=O)[C@H]1[C@H](C)O	3540
CCOC(=O)C1=C[C@@H](c2ccccc2)N(S(=O)(=O)c2ccc(C)cc2)[C@H]1c1ccc(OC)cc1	4068

OC(c1ccccc1)c1nc(-c2ccc(F)c(Cl)c2)cs1 (stereo unspecified)
  Autofluor counter = 3492
Cc1cc(C(=O)CCC(=O)Nc2cccc(F)c2)c(C)s1
  Autofluor counter = 2963
COc1cccc(CNc2nc3cc(-c4ccsc4)sc3c(=O)n2C)c1OC
  Autofluor counter = 3056
Cc1ccc([C@H]2C[C@@H](n3cc(COC(=O)c4ccccc4)nn3)[C@H](O)CN2CC2CCCCC2)cc1
  Autofluor counter = 3406
COc1ccccc1N1CCCSC1=Nc1ccccc1
  Autofluor counter = 3766
C[C@H]1CN([C@@H](C)CO)C(=O)CCCn2cc(nn2)CO[C@@H]1CN(C)C(=O)Nc1ccc(C(F)(F)F)cc1
  Autofluor counter = 3609
CC1(c2nnnn2Cc2ccccc2)CCC(=O)N1Cc1ccc(F)cc1 (stereo unspecified)
  Autofluor counter = 5683
CCCCCC(=O)N1C[C@@H](n2cc(-c3ccc(F)cc3)nn2)[C@H](O)C[C@@H]1c1ccc(OC)cc1
  Autofluor counter = 3836
COc1ccc(CN2C(=O)C(CC(=O)NC3CCCC3)CC(C(=O)N(C(C)C)C(C)C)=C2C)cc1 (stereo unspecified)
  Autofluor counter = 2899
CS(=O)(=O)Nc1cccc(NC(=O)C2Cc3c(-c4ccccc4)ccnc3O2)c1 (stereo unspecified)
  Autofluor counter = 4086
Cc1ccccc1CN1CCN(C(=O)[C@H]2O[C@@H](n3ccc(=O)[nH]c3=O)[C@H](O)[C@@H]2O)CC1
  Autofluor counter = 5597
CC(=O)Nc1cccc(-c2ccnc3c2CC(C)(C(=O)Nc2cccc(OC(F)(F)F)c2)O3)c1 (stereo unspecified)
  Autofluor counter = 4427
C=CCNC(=S)N1Cc2ccccc2-n2nncc2C1
  Autofluor counter = 3884
C=C(C)Cn1c2ccc(NC(=O)NCCc3ccccc3)cc2c(=O)n1C
  Autofluor counter = 3822
CCOC(=O)C(=Cc1ccc(N(C)C)cc1)C(=O)c1ccccc1
  Autofluor counter = 5785
COc1cccc(CN2CCC2(C)C(=O)Nc2ccc(Cl)c(Cl)c2)c1F (stereo unspecified)
  Autofluor counter = 4012
COc1ccccc1Cc1c(-c2ccc(OC)c(OC)c2)nc2ccc(C)cn12
  Autofluor counter = 6218
CC(C)NC(=O)C1(C)CCN1C(=O)Cc1ccc(-c2ccccc2)cc1 (stereo unspecified)
  Autofluor counter = 3629
CC(C)C(N)c1csc(Nc2ccc(S(C)(=O)=O)cc2)n1 (stereo unspecified)
  Autofluor counter = 4105
Cc1ccc(S(=O)(=O)Oc2ccccc2C=C2C(=O)NC(=O)NC2=O)cc1
  Autofluor counter = 3776
COCCN1C(=O)CCC1(C)C(=O)NC(C)(C)C (stereo unspecified)
  Autofluor counter = 5238
CC(C)CC1C(=O)N(Cc2cn(Cc3ccco3)nn2)CCS(=O)(=O)N1Cc1ccc(-c2ccc(Cl)cc2)cc1 (stereo unspecified)
  Autofluor counter = 3241
COCCNC(=O)C1(C)CCCN(Cc2cc3ccccc3o2)C1 (stereo unspecified)
  Autofluor counter = 3958
COc1ccc(S(=O)(=O)N2CCCCC2c2cc(C(=O)Nc3ccc(F)c(Cl)c3)no2)cc1 (stereo unspecified)
  Autofluor counter = 3920
O=C(O)c1cscc1-c1cccc2ccccc12
  Autofluor counter = 3384

CCN(CC)C(=O)C1=C(C)N(Cc2ccccc2)C(=O)C(CC(=O)NCCCCc2ccccc2)C1 (stereo unspecified)
  Autofluor counter = 3564
COc1ccc(C(C)=O)cc1CN1C(=O)C(C)ON=C1c1ncccc1C (stereo unspecified)
  Autofluor counter = 3839
Cc1ccc(S(=O)(=O)CCC(=O)OCC(=O)Nc2cccc(S(=O)(=O)N3CCCCC3)c2)cc1
  Autofluor counter = 3779
O=C(NCc1ccccc1)c1cc(C2CCCN(C(=O)c3ccccc3)C2)on1 (stereo unspecified)
  Autofluor counter = 2956
Cn1ccc2c(N3CCCC3)cc3c(c21)C1CCC3C1 (stereo unspecified)
  Autofluor counter = 6967
O=c1[nH][nH]c2c1[C@H](c1ccc(Cl)cc1)O[C@H](C1CCCCC1)C2
  Autofluor counter = 6304

Source: PubChem (NMMLSC)

An excerpt; the hit share may differ from the screen's.
